Sa growth inh = S. aureus growth inhibition at 42 and 30 °C, primary screen, LtaS inhibitor project, RN4220, two temperatures | actives 0.53% (n = 170,000) | relative growth, % (test concentration not listed) | OD600, 20 h, 42 °C; hits give low values;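 active = growth at 42 °C up to 50% and 20 or more points under that at 30 °C, or under 10% at both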;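 also: 300 nL library stock went into each well; scaled to the means of positive and negative controls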
GIV-Gai inh = inhibitors of GIV peptide binding to Galpha-i3, primary screen, biochemical, fluorescence polarization, FITC-GIV GBA peptide, rat Galphai3; 90 min; hits give low values; scaled: aluminum fluoride 0%, vehicle 100%; actives 0.42% (n = 210,000); percent of control (FP), % (no concentration beside the values);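 active = replicate mean at 85% of control or lower, very high polarization wells dropped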;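 also: wells of about 15 µL received 100 nL stock; the first replicate is given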
Target sequence (P08753 whole entry, looked up): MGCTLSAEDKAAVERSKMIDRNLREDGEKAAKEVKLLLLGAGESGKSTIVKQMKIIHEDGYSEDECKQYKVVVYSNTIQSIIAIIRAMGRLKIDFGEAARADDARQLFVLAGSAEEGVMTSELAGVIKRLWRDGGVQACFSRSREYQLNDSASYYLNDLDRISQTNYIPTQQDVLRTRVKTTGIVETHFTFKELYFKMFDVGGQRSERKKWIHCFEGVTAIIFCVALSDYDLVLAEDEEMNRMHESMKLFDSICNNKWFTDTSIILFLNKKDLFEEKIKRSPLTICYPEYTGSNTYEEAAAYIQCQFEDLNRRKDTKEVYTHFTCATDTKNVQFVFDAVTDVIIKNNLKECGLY
HCMV NEC inh = inhibitors of HCMV UL50-UL53 interaction, biochemical, HTRF; HCMV UL50-UL53 nuclear egress complex (human cytomegalovirus); normalized percent inhibition; inhibition, % (test concentration not listed); actives 0.15% (n = 190,000);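 active = both replicates at 50% or more, plus weaker picks with an unusually low signal ratio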;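 also: stock transfer was 100 nL into about 20 µL; 0% = negative control wells and 100% = wells with untagged competitor protein; inactives centre near -12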
Sa growth inh second temp = recorded beside Sa growth inh, whose call it bears; relative growth, %; measured here: growth at 30 °C;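 optical density after 20 h as mean of two plates; 100% = untreated growth and lower means inhibition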
Active calls of the source: *; . = no result given; & = joins results of further samples.

SMILES | Sa growth inh | Sa growth inh second temp | GIV-Gai inh | HCMV NEC inh
O=C(NCc1cccn1Cc1ccccc1)NCC1CCCO1 (stereo not drawn) | . | . | 104 | -25
COc1ccc(CN2CCN(c3ccc(F)cc3)CC2)c2ccccc12 | 135 | 109 | 103 | -12
CCC(Sc1nc2ccsc2c(=O)n1NC(=O)c1ccccc1)C(=O)Nc1cccc(C)c1 (stereo not drawn) | 111 | 93 | 100 | .
CCC12CN(C(=O)c3ccc(OC)cc3)CC(CC)(CN(C(=O)c3ccc(OC)cc3)C1)C2=O | 108 | 92 | . | -2
O=C(O)CCn1c(SCCOc2ccc(Cl)cc2)nc2ccccc21 | . | . | 101 | -12
N#CC1=NN(c2ccccc2)C(c2ccccc2)CC1=O (stereo not drawn) | 78 | 79 | . | -76
NS(=O)(=O)c1ccc(CCNC(=O)C(Sc2ccccc2)c2ccccc2)cc1 (stereo not drawn) | 82 | 89 | . | -15
CCc1cccc(NC(=O)Cn2ncc3c([nH]c4ccc(C)cc43)c2=O)c1 | 113 | 92 | 111 | .
CCS(=O)(=O)N1CCC(NC(=O)c2ccccc2Cl)CC1 | 91 | 79 | 107 | -3
Cn1c(O)c(C=Nc2ccccc2)oc1=S | 95 | 98 | 103 | .
Cn1c(SCc2nc(N)nc(N3CCCc4ccccc43)n2)nnc1-c1ccccc1 | 95 | 91 | 96 | 3
CN(C(=O)CSc1nccc(=O)[nH]1)C1CCCCC1 | 100 | 92 | . | -4
COc1ccc(/C=C2\C(=O)NC(=O)N(c3ccccc3C)C2=O)c(OC)c1OC | . | . | 103 | -20
Cc1ccc(Cn2ccnc2SCC(=O)Nc2ccccc2C(F)(F)F)cc1 | 127 | 99 | 110 | .
CCn1nc(C)cc1-c1nnc(SCC(=O)c2ccccc2)n1-c1ccccc1 | 99 | 87 | 99 | -6
CC(Sc1nc2ccccc2c(=O)n1C)C(=O)Nc1ccc2c(c1)OCCO2 (stereo not drawn) | 78 | 92 | . | 34*
COc1ccc(C2Oc3nc(SC)nnc3-c3ccccc3N2C(C)=O)cc1 (stereo not drawn) | 97 | 85 | 99 | -74
C=CCn1c(SC(C)C(N)=O)nnc1-c1ccc(OC)cc1 (stereo not drawn) | 105 | 98 | . | -15
Cc1c(Cl)cccc1NC(=O)CN1C(=O)COc2ccc(S(=O)(=O)N3CCCCCC3)cc21 | 110 | 87 | 109 | .
Cc1ccc2onc(CC(=O)N3CCN(c4ccccc4F)CC3)c2c1 | 102 | 108 | 104 | 8
CCN(CC)c1ccc(C=NNC(=O)Cn2nnc3ccccc32)c(O)c1 | 84 | 79 | 102 | -27
CCOC(=O)c1c(C)oc2ncnc(N(C)CCCN(CC)CC)c12 | . | . | 99 | 2
Nc1c(S(=O)(=O)c2ccc(F)cc2)c2nc3ccccc3nc2n1Cc1cccs1 | 83 | 75 | 97 | -35
CC1CCCC(C)N1CC(=O)N1CCCc2c1c(=O)oc1ccc(OCc3ccccc3)cc21 (stereo not drawn) | 85 | 68 | 97 | -86
Cc1cccc(CC(=O)N2CC(C)OC(C)C2)c1 (stereo not drawn) | 100 | 102 | 107 | -11
Clc1nc(Nc2ccccc2)sc1/C=N/N1CCOCC1 | 116 | 83 | . | -24
O=C(Nc1ccccc1F)c1ccnc(N2CCC(C(=O)O)CC2)c1 | . | . | 99 | -32
CC(=O)c1ccc(NC(=O)c2nc(-c3ccccc3)n(-c3ccccc3Cl)n2)cc1 | 96 | 86 | 104 | -27
Cc1ccccc1OCc1ccc(-c2nc(C#N)c(N3CCC(C(N)=O)CC3)o2)o1 | 104 | 79 | 101 | -29
CC(C)c1nc2ccccc2n1Cc1ccccc1Cl | 116 | 84 | 106 | .
CN(Cc1nnc(-c2ccccc2)o1)C(=O)c1ccc(F)cc1 | 93 | 86 | 111 | -38
N=C=C1C(=O)c2ccccc2C1=O | 98 | 95 | 109 | -38
c1ccn2c(SCc3ccc4c(c3)OCCO4)nnc2c1 | 84 | 82 | 99 | .
COc1cc(OC)c(Nc2c3c(nc4nc(-c5cccs5)nn24)CCCC3)cc1Cl | 92 | 74 | 105 | .
COc1ccc(NC(=O)c2sc3nc(C)c(C(=O)Nc4ccc(C)cc4C)c(-c4cccs4)c3c2N)cc1 | 92 | 85 | 103 | -1
COc1[nH]c2ccccc2c1/C=N/O | 99 | 99 | 104 | -1
NS(=O)(=O)c1ccc(NC(=O)CCCC(=O)O)cc1 | 95 | 83 | 103 | .
COC(=O)[C@H](Cc1ccccc1)NC(=O)[C@@H](N)CC(=O)O | 99 | 93 | . | -38
Cc1ccc(O)c(NC(=O)c2cc(-c3ccc(F)cc3)on2)c1 | 93 | 94 | 102&96 | -24&-12
Cc1ccc(N(CC(=O)N2CCc3ccccc32)C2=NC(=O)CS2)cc1 | 98 | 93 | . | -32
CCOC(=O)CNc1nnc(-c2ccccc2)c(-c2ccccc2)c1C#N | 76 | 86 | . | -11
CCN(C(=O)c1cc2c(s1)-c1ccccc1S(=O)(=O)C2)c1ccc(F)cc1 | 95 | 98 | 102 | 9
Cc1c(Cl)cccc1NC(=O)CCn1c(C(F)(F)F)nc2cc(S(=O)(=O)N(C)C)ccc21 | . | . | 102 | -29
CN(C)S(=O)(=O)c1ccc(C(=O)Nc2nc3ccccc3c3nc4ccccc4n23)cc1 | . | . | 96 | -20
Cc1cc(Cl)n(-c2ccc(F)cc2)n1 | 90 | 86 | . | 18
O=C(Nc1ncc(Cc2ccc(F)cc2)s1)c1ccc2c(c1)CC(c1ccccc1)OC2=O (stereo not drawn) | 107 | 88 | 95 | -20
O=C(Nc1ccc(Cl)cc1)/C(=C\c1cccs1)c1ccsc1 | 96 | 85 | 107 | .
COc1ccccc1N1CCN(C(=O)C2CCCCC2)CC1 | 85 | 92 | 102 | 37
CNCCCNCc1ccc(-c2ccc(F)c(Cl)c2)o1 | . | . | 105 | -17
CC1CCCCN1S(=O)(=O)c1ccc2[nH]c(=O)cc(C(=O)NCCc3ccc(Cl)cc3)c2c1 (stereo not drawn) | 126 | 88 | 110 | .
(further entries)
SMILES | Sa growth inh | Sa growth inh second temp | GIV-Gai inh | HCMV NEC inh
O=S(=O)(c1ccccc1)N1N=C(c2cccs2)CC1c1ccccc1O (stereo not drawn) | 102 | 87 | . | -5
O=C(O)/C(=C/c1ccsc1)c1cc(F)cc(F)c1 | 100 | 91 | 99 | 3
CCCNC(=O)c1oc2ccc3c(c2c1C)C=CC(C)(C)O3 | 64 | 47 | 99 | -18
Cc1cccc(C)c1NC(=O)c1ccc2c(c1)N(Cc1cccc(Cl)c1)C(=O)c1ccccc1S2=O (stereo not drawn) | 107 | 95 | 106 | 13
Cc1cc(C)n2ncc(C(=O)NCC3CCCO3)c2n1 (stereo not drawn) | . | . | 103 | -20
O=C(CCNc1ccc(Br)cc1)c1ccc2c(c1)OCO2 | 81 | 101 | . | 16
CCOC(=O)c1ccccc1NC(=O)n1ncc2cc(Cl)ccc21 | 115 | 107 | 102 | -20
COc1ccc(C(=O)/C=C/c2cn(CC(O)CN3CCc4ccccc43)c3ccccc23)cc1OC (stereo not drawn) | 108 | 83 | 115 | 5
CCc1ccc(Sc2c(N)c3c(c(N)c2Sc2ccc(CC)cc2)C(=O)c2ccccc2C3=O)cc1 | . | . | 104 | -13
COc1ccc2c(=S)c(-c3cc4ccccc4o3)c(C)oc2c1 | 91 | 111 | . | 21

The closing 2 records of the part before lead into the next.
SMILES | Sa growth inh | Sa growth inh second temp | GIV-Gai inh | HCMV NEC inh
CCc1ccc(Sc2c(N)c3c(c(N)c2Sc2ccc(CC)cc2)C(=O)c2ccccc2C3=O)cc1 | . | . | 104 | -13
COc1ccc2c(=S)c(-c3cc4ccccc4o3)c(C)oc2c1 | 91 | 111 | . | 21
CCCN(CCC)S(=O)(=O)c1ccc(Br)cc1 | 108 | 80 | . | -24
Cc1ccc(Cc2cnc(I)c(O)c2)cc1 | 83 | 89 | 93 | -6
COc1ccc2c(c1)CCc1c(C(=O)Nc3cc(OC)c(Cl)cc3OC)noc1-2 | 91 | 107 | 100 | 15
Cc1nc(N)sc1C(C)(C)C | 113 | 85 | 103 | -26
COc1ccc(-c2nnc3c4ccccc4c(C)nn23)cc1S(=O)(=O)N(C)CCO | 97 | 96 | 114 | 29
CN1c2ccccc2N(C)C1c1ccccc1 | 105 | 92 | 102 | .
CCOc1ccc(NC(=O)c2cnn3c2NC(C)=C(C(=O)Nc2ccc(Cl)cc2)C3c2ccc(OC)c(OC)c2)cc1 (stereo not drawn) | 83 | 88 | 100 | 2
CC(OC(=O)c1ccc2c(=O)n3c(nc2c1)CCC3)C(N)=O (stereo not drawn) | 94 | 93 | . | -1
CC1NCc2c(sc3c2CCCC3)-n2cccc21 (stereo not drawn) | 84 | 87 | 109 | -20
Brc1ccc(-c2cc(-c3ccccc3)no2)cc1 | 96 | 96 | 103 | -38

An excerpt of these results, comma-delimited.
structure,Sa growth inh,Sa growth inh second temp,GIV-Gai inh,HCMV NEC inh
CCCNC(=O)c1oc2ccc3c(c2c1C)C=CC(C)(C)O3,64,47,99,-18
Cc1cccc(C)c1NC(=O)c1ccc2c(c1)N(Cc1cccc(Cl)c1)C(=O)c1ccccc1S2=O (stereo not drawn),107,95,106,13
Cc1cc(C)n2ncc(C(=O)NCC3CCCO3)c2n1 (stereo not drawn),.,.,103,-20
O=C(CCNc1ccc(Br)cc1)c1ccc2c(c1)OCO2,81,101,.,16
CCOC(=O)c1ccccc1NC(=O)n1ncc2cc(Cl)ccc21,115,107,102,-20
COc1ccc(C(=O)/C=C/c2cn(CC(O)CN3CCc4ccccc43)c3ccccc23)cc1OC (stereo not drawn),108,83,115,5
CCc1ccc(Sc2c(N)c3c(c(N)c2Sc2ccc(CC)cc2)C(=O)c2ccccc2C3=O)cc1,.,.,104,-13
COc1ccc2c(=S)c(-c3cc4ccccc4o3)c(C)oc2c1,91,111,.,21
CCCN(CCC)S(=O)(=O)c1ccc(Br)cc1,108,80,.,-24
Cc1ccc(Cc2cnc(I)c(O)c2)cc1,83,89,93,-6
COc1ccc2c(c1)CCc1c(C(=O)Nc3cc(OC)c(Cl)cc3OC)noc1-2,91,107,100,15
Cc1nc(N)sc1C(C)(C)C,113,85,103,-26
COc1ccc(-c2nnc3c4ccccc4c(C)nn23)cc1S(=O)(=O)N(C)CCO,97,96,114,29
CN1c2ccccc2N(C)C1c1ccccc1,105,92,102,.
CCOc1ccc(NC(=O)c2cnn3c2NC(C)=C(C(=O)Nc2ccc(Cl)cc2)C3c2ccc(OC)c(OC)c2)cc1 (stereo not drawn),83,88,100,2
CC(OC(=O)c1ccc2c(=O)n3c(nc2c1)CCC3)C(N)=O (stereo not drawn),94,93,.,-1
CC1NCc2c(sc3c2CCCC3)-n2cccc21 (stereo not drawn),84,87,109,-20
Brc1ccc(-c2cc(-c3ccccc3)no2)cc1,96,96,103,-38

More compounds follow.
SMILES | Sa growth inh | Sa growth inh second temp | GIV-Gai inh | HCMV NEC inh
COc1ccc(C(=O)NCC(c2ccc3c(c2)OCO3)N2CCN(C)CC2)cc1 (stereo not drawn) | 103 | 87 | 98 | .
CC1=C(C(=O)NCCN2CCC(Cc3ccccc3)CC2)C2(CCCCC2)OC1=O | . | . | 102 | -20
O=C(COC(=O)C(O)c1ccccc1)NC12CC3CC(CC(C3)C1)C2 (stereo not drawn) | 101 | 92 | . | -25
Cc1ccc(N2C(=O)c3n[nH]c(C)c3C2c2ccc(C(C)C)cc2)cc1 (stereo not drawn) | 97 | 90 | 106 | -25
COC(=O)[C@H](C)NC(=O)C(c1ccccc1)c1ccccc1 | 99 | 90 | . | -24
Cc1noc(C)c1COc1cccc(C(=O)Nc2ccccc2)c1 | 96 | 91 | . | -6

Source: PubChem (ICCB-Longwood Screening Facility, Harvard Medical School)
